GLA inh pH 4.5: blocks human alpha-galactosidase A at pH 4.5 | P06280 | purified enzyme, 4-MU-alpha-Gal fluorescence, pH 4.5 | activity change, negative = inhibition, % at 105 µM | 230,000 tested, under 10 active | AID 1467; inconclusive = small, poorly fitted or top-dose-only inhibition, or a rising curve; inactive = flat fitted curve, though single readings scatter; no compound was filed as active;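 note: 0% = full activity with enzyme and -100% = basal without enzyme; dose as in the result columns while the protocol names 77 µM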
Rango release inh: inhibitors of RanGTP-induced Rango-importin beta complex dissociation. Potency, µM (series often up to 46.1 µM), for inactives: at the highest dose activity change, negative = inhibition. O95149+P62826. 0.071% of 340,000 active. AID 540253. Biochemical FRET Rango-importin beta, RanGTP-induced dissociation; active means falling FRET ratio curve, often poorly fitted, with flat reads before Ran was added; inconclusive means other falling curves, or compound fluorescence or quenching; inactive means flat or rising ratio curve;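 note: potency is the fitted concentration of half-maximal effect; % of control where 0% means no effect; nearly all actives have a fitted effect of over 45% in size; -100% = wells without RanGTP and RCC1; the record marks most hits as doubtful in a second field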
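Two FRET readings bracket the reaction: one 5 min after compound meets Rango–importin beta, another 45 min after RanGTP-RCC1 (0.6 uM Ran, 0.2 uM RCC1, 2 mM GTP) is added. Only the second defines inhibition.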
miR-21 FLuc: miR-21 reporter, rising signal; HeLa miR-21 FLuc reporter, luciferase, 48 h; Potency, µM (highest dose often 38.3 µM), for inactives: top-dose reporter change, positive = more light; 340,000 tested, under 10 active; AID 2288; active = well fitted rising curve with a large enough effect; inconclusive = small, poorly fitted or top-dose-only effect; inactive = no such curve, though single readings can be large or run the other way;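 note: % of control where 0% means no effect; miR-21 action dims this reporter so a rising signal means less miR-21 action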
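HeLa cells stably expressing CMV-driven firefly luciferase with a downstream miR-21 binding sequence, endogenously expressing miR-21, were treated with titrations (up to about 40uM final) for 48 hours at 37 degree Celsius. Luciferase luminescence was read after lysis.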
Rango complex inh: Rango-importin beta binding inhibition; Rango CFP/YFP FRET sensor + importin beta, 45 min; Q14974; AID 540263; 0.031% of 340,000 active; Potency, µM (top dose mostly 92.2 µM), inactives show at the highest dose inhibition of complex formation; active = rising FRET ratio curve, often small or poorly fitted; inconclusive = mostly compound fluorescence or quenching in the first reads; inactive = flat curves in all reads;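 note: potency is the fitted concentration of half-maximal effect; 0% = DMSO wells and 100% = buffer wells lacking importin beta; nearly all actives have a fitted effect of over 15% in size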
Target sequence (Q14974 whole entry, looked up): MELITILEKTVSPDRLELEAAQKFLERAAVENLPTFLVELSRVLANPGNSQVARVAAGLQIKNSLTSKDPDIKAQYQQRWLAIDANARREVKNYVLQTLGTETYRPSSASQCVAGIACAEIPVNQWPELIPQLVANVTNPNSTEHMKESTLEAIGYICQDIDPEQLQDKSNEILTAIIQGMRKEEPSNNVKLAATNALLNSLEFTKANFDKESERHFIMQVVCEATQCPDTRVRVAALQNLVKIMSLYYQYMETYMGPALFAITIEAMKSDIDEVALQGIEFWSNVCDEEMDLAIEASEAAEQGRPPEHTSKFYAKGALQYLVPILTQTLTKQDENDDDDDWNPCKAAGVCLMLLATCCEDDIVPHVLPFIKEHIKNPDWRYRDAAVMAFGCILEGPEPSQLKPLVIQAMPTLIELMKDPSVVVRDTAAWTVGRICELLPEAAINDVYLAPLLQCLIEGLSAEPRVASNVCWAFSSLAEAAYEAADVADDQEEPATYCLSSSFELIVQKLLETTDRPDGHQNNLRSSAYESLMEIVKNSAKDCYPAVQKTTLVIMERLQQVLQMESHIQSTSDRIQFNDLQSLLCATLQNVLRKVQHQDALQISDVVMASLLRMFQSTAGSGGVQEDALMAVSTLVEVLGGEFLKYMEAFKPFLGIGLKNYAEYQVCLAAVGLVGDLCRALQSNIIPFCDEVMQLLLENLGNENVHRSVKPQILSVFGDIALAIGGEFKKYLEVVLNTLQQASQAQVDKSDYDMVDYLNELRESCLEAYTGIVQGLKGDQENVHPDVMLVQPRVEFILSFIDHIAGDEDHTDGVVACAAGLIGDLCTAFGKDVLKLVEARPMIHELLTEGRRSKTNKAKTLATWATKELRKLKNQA
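FRET biosensor Rango (snurportin 1 IBB between N-terminal EYFP and C-terminal Cerulean), 50 nM in PBS/1 mM DTT/0.02% Tween-20/0.1% BSA, preincubated 5 min RT with compound; 0.125 microM importin beta added, 45 min RT, CFP/YFP FRET ratio read.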
* = called active by the depositor; ? = inconclusive; nt = no result given. An excerpt. The share of hits here may be higher or lower than overall.

1	O=C(Cn1cc(C(=O)C(F)(F)F)c2cc(Br)ccc21)N1CCOCC1
2	Cc1cn(C2CCC(CO)O2)c(=O)[nH]c1=O (centres undefined)
3	O=P(O)(O)c1cc(-c2ccccc2)oc1-c1ccccc1
4	O=C(CN1C(=O)NC2(CCCCCC2)C1=O)NC1CC1
5	CCN(CC)c1ccc(C(=O)OCC(=O)N(C)Cc2ccccc2)cc1
6	Cc1ccc(C(=O)NCC(C)NC(=O)c2ccc(C)c([N+](=O)[O-])c2)cc1[N+](=O)[O-] (centres undefined)
7	COc1ccc(CNC(=O)COc2ccc(OC)cc2)cc1
8	COc1ccc(C2CC(c3ccccc3Cl)Nc3ncnn32)cc1OC (centres undefined)
Screen / compound no. | 1 | 2 | 3 | 4 | 5 | 6 | 7 | 8
GLA inh pH 4.5 | 1 | 0 | -3 | -2 | 11 | nt | nt | -4
Rango release inh | 1% | 14% | 0% | 18% | -2% | -6% | 0% | -9%
miR-21 FLuc | 3% | -2% | 0% | -1% | -3% | nt | 0% | -15%
Rango complex inh | -0.9% | -3.6% | 1.3% | 1.5% | 3.8% | -1.8% | -0.5% | -3.2%

2 records drawn at random from the list so far:
8	COc1ccc(C2CC(c3ccccc3Cl)Nc3ncnn32)cc1OC (centres undefined)
2	Cc1cn(C2CCC(CO)O2)c(=O)[nH]c1=O (centres undefined)
Screen / compound no. | 8 | 2
GLA inh pH 4.5 | -4 | 0
Rango release inh | -9% | 14%
miR-21 FLuc | -15% | -2%
Rango complex inh | -3.2% | -3.6%

Reformatted with two lines to a compound: part of the list above
Below each compound – GLA inh pH 4.5 | Rango release inh | miR-21 FLuc | Rango complex inh
1. O=C(Cn1cc(C(=O)C(F)(F)F)c2cc(Br)ccc21)N1CCOCC1
  1 | 1% | 3% | -0.9%
2. Cc1cn(C2CCC(CO)O2)c(=O)[nH]c1=O (centres undefined)
  0 | 14% | -2% | -3.6%
3. O=P(O)(O)c1cc(-c2ccccc2)oc1-c1ccccc1
  -3 | 0% | 0% | 1.3%
4. O=C(CN1C(=O)NC2(CCCCCC2)C1=O)NC1CC1
  -2 | 18% | -1% | 1.5%
5. CCN(CC)c1ccc(C(=O)OCC(=O)N(C)Cc2ccccc2)cc1
  11 | -2% | -3% | 3.8%
6. Cc1ccc(C(=O)NCC(C)NC(=O)c2ccc(C)c([N+](=O)[O-])c2)cc1[N+](=O)[O-] (centres undefined)
  nt | -6% | nt | -1.8%
7. COc1ccc(CNC(=O)COc2ccc(OC)cc2)cc1
  nt | 0% | 0% | -0.5%

(continued)
9	COc1cc(/C=N/Nc2ccc([N+](=O)[O-])cn2)cc(OC)c1O
10	Cc1nc2ccccc2c2c1C(=O)N(c1cccc(C(=O)O)c1)C2=O
11	N=C1c2ccccc2CN1NC(=O)c1cccc(S(=O)(=O)N2CCCCC2)c1
12	CC(=O)c1sc2nc(-c3cccs3)ccc2c1N
13	C/C(=N\NC(=O)C(C)Sc1ccccc1)c1ccc([N+](=O)[O-])cc1 (centres undefined)
14	O=C(CCN1C(=O)/C(=C/c2ccccc2F)SC1=S)NC1C=CS(=O)(=O)C1 (centres undefined)
15	Cc1ccc(NC(=O)c2ccc3c(c2)OCCO3)cc1
16	O=C(O)CSc1nc2c(c(=O)[nH]1)CCCC2
Screen / compound no. | 9 | 10 | 11 | 12 | 13 | 14 | 15 | 16
GLA inh pH 4.5 | nt | 0 | 3 | 4 | nt | nt | 0 | 0
Rango release inh | -14% | 0% | 0% | ? | 36% | -1% | 2% | -12%
miR-21 FLuc | 13% | -1% | -6% | -84% | 2% | 1% | 7% | 0%
Rango complex inh | -0.7% | 0.1% | 0.1% | ? | -2.2% | -1.8% | -1.7% | -0.7%

17	C/C(=N\O)c1ncc(C(F)(F)F)cc1Cl
18	Cc1cc(C)c(N2C(=NC(=O)CCCC(=O)O)SC3CS(=O)(=O)CC32)c(C)c1 (centres undefined)
19	O=C(CCNC(=O)c1ccccc1Cl)NCc1ccncc1
20	CCNS(=O)(=O)c1ccc(CCC(=O)NCc2ccccc2)cc1
21	CN(C)c1ccc(/C=N/N2CCN(c3ccccn3)CC2)cc1
22	COc1cc(CN2C(=O)C(NC(=O)c3ccco3)(C(F)(F)F)C3=C2CC(C)(C)CC3=O)cc(OC)c1 (centres undefined)
23	Cc1ccc(C[n+]2cccc(-c3ccccc3)c2)c(C)c1
24	COc1cc(O)oc1C=Nc1ccccc1
Screen / compound no. | 17 | 18 | 19 | 20 | 21 | 22 | 23 | 24
GLA inh pH 4.5 | 0 | 2 | nt | 6 | 2 | -3 | 7 | -6
Rango release inh | 19% | -8% | 1% | 4% | 0% | 15% | -2% | -2%
miR-21 FLuc | -2% | -5% | nt | 1% | -57% | -4% | ? | -14%
Rango complex inh | 0.4% | 1.9% | 3.3% | 3.4% | 4.0% | -4.1% | -0.3% | 2.9%

25	CCCn1c(NC(=O)c2cccc(C)c2C)nc2ccccc21
26	COc1ccc(C(=O)Cn2nc(CNc3ccc(Br)cc3)[n+]3c2CCCCC3)cc1
27	Cc1cc(C(=O)COC(=O)c2ccc(N)c([N+](=O)[O-])c2)c(C)n1Cc1ccc2c(c1)OCO2
28	Cc1ccc(CNC(=O)c2ccc(S(=O)(=O)N(C)C)cc2)n1C
29	COC(=O)C1=C(C)N(Cc2ccc(OC)cc2)C(=O)/C1=C\c1ccco1
30	CCOC(=O)CC/C(=N\NC(N)=O)c1ccc(OC)c(Cl)c1
31	CSCCC(NS(=O)(=O)c1ccc(Cl)cc1)C(=O)OCC(=O)N1CCCc2ccccc21 (centres undefined)
32	CCOc1ccc(C(F)(F)F)cc1NC(=O)COc1ccc(C(F)(F)F)cc1[N+](=O)[O-]
Screen / compound no. | 25 | 26 | 27 | 28 | 29 | 30 | 31 | 32
GLA inh pH 4.5 | -2 | -2 | 6 | nt | -8 | nt | -9 | 7
Rango release inh | 12% | 0% | 12% | -5% | 7% | 32% | 0% | -25%
miR-21 FLuc | 9% | 25% | -5% | -3% | -1% | nt | -5% | -4%
Rango complex inh | -2.7% | -2.7% | -0.5% | -2.4% | -1.0% | 0.7% | -5.8% | -3.7%

33	CCCCNC(=S)Nc1ccc2nc(N3CCN(CC)CC3)cc(C)c2c1
34	Cc1ccc(N2CC(C)Cn3c2nc2c3c(=O)[nH]c(=O)n2C)cc1 (centres undefined)
35	COc1cc(C2C3=C(COC3=O)OC(C)(C)Oc3cc4c(cc32)OCO4)cc(OC)c1OC (centres undefined)
36	Cc1cc(Cl)c(S(=O)(=O)NC2CCCCC2)cc1OCC(=O)Nc1nncs1
37	CC(C)COc1ccc(-c2nn(-c3ccccc3)cc2CO)cc1
38	CC1C(=O)N2CCCc3cc(NS(C)(=O)=O)cc1c32 (centres undefined)
39	Cc1ccc2nc3c(cc(C#N)c(=O)n3-c3nccs3)c(=O)n2c1
40	COc1cccc(NC(=O)N2C3CCCC2CC(NC(C)=O)C3)c1 (centres undefined)
Screen / compound no. | 33 | 34 | 35 | 36 | 37 | 38 | 39 | 40
GLA inh pH 4.5 | nt | nt | nt | 2 | nt | nt | ? | nt
Rango release inh | -2% | 13% | 6% | 10% | -9% | 6% | ? | 0%
miR-21 FLuc | -11% | 1% | nt | 30% | 1% | -1% | 1% | -1%
Rango complex inh | 0.4% | 4.6% | -0.2% | -5.3% | -0.5% | 0.4% | ? | 4.0%

41	CC1(C)CC(NC(=O)COc2cc3oc(=O)c4c(c3cc2Cl)CCC4)CC(C)(C)N1
42	O=C1CSc2ccc(C(=O)O)cc2N1
43	Cc1cc(Br)cc2cn[nH]c12
44	N#CC1=C(N)Oc2n[nH]c(-c3cccs3)c2C1c1cccnc1 (centres undefined)
45	O=C(O)CC1S/C(=N\N=C/c2ccccc2)N(c2ccc(O)cc2)C1=O (centres undefined)
46	Cc1cc(NC(=O)/C=C/c2ccc(F)cc2)n(-c2nc3ccccc3[nH]2)n1
47	O=C(NNC(=S)NCc1ccc(Cl)cc1)c1ccc(Br)o1
48	CCOC(=O)C1=C(CCc2ccccc2)NC(=O)NC1c1ccc(C#N)cc1 (centres undefined)
Screen / compound no. | 41 | 42 | 43 | 44 | 45 | 46 | 47 | 48
GLA inh pH 4.5 | nt | -18 | 1 | -3 | -6 | 5 | 9 | nt
Rango release inh | 3% | 0% | 4% | 32% | 10% | -11% | 11% | -8%
miR-21 FLuc | -6% | -1% | -8% | -3% | -1% | -10% | -1% | nt
Rango complex inh | -4.5% | 2.5% | 1.0% | -3.5% | ? | 0.0% | 0.3% | 0.7%

49	COc1cccc(OC)c1C(=O)N1CCN(Cc2ccccc2C)CC1
50	Cc1c([N+](=O)[O-])cc(C(=O)N2CCOCC2)cc1[N+](=O)[O-]
51	O=C(c1ccc(-c2ccccc2Cl)o1)N1CCC1
52	COc1ccc(CCCc2nnc(SCC(=O)Nc3cc(C)c(C)cc3Br)o2)cc1
53	CCC(=O)Nc1ccc(NCc2cccs2)cc1
54	O=C(Nc1ccc(F)cc1F)NC1CCN(Cc2c(F)cccc2Cl)CC1
55	CC(=O)Oc1ccccc1C1OC(=O)c2ccccc2N1C(C)=O (centres undefined)
56	COc1ccc(-n2c(O)c(C=NC3CC3)c(=O)[nH]c2=O)cc1
Screen / compound no. | 49 | 50 | 51 | 52 | 53 | 54 | 55 | 56
GLA inh pH 4.5 | -1 | -6 | nt | -7 | nt | -5 | -1 | 0
Rango release inh | 17% | 0% | -2% | 17% | 2% | -18% | 23% | 0%
miR-21 FLuc | -5% | 0% | nt | -3% | -26% | 9% | -4% | -4%
Rango complex inh | -1.4% | -0.3% | -2.3% | -0.3% | 1.8% | 0.3% | 1.0% | 0.5%

57	O=C(CSc1nnc(CNC(=O)c2cccs2)o1)c1ccccc1
58	CCC(C)[C@H](NC(=O)NCCCOC(C)C)C(=O)OC (some centres undefined)
59	c1ccc(CSC2=NCCS2)cc1
60	COc1ccc(-n2c(SC)nc(O)cc2=O)cc1
61	CCN(CC)CCNC(=O)CCn1c(=S)[nH]c2cc3c(cc2c1=O)OCO3
62	Cc1sc2ncn(CC(=O)NCc3ccccc3)c(=O)c2c1C
63	O=c1cc(CSc2nnc(COc3ccccc3)n2-c2ccccc2)c2ccccc2[nH]1
64	CN(C)C(CNC(=O)CNC(=O)c1ccc(Br)cc1)c1ccccc1 (centres undefined)
Screen / compound no. | 57 | 58 | 59 | 60 | 61 | 62 | 63 | 64
GLA inh pH 4.5 | -1 | 2 | -4 | -7 | 1 | 4 | -1 | 7
Rango release inh | -1% | -1% | 11% | 0% | 6% | -9% | 10% | 7%
miR-21 FLuc | -2% | -1% | -4% | -2% | -1% | 19% | -6% | -2%
Rango complex inh | -0.3% | -3.1% | -2.1% | -0.6% | -1.8% | -0.9% | -1.4% | -3.3%

65	COc1cc(C)c(S(=O)(=O)n2nnc3ccccc32)cc1C
66	COc1ccc(CNC(=O)c2cc(-c3cc(C)ccc3O)n[nH]2)cc1
67	Cc1sc2c(c1C)c(=O)nc1scc(CC(=O)O)n12
68	Cc1cccn2c(=O)c3cc(C#N)c(=NC(=O)c4ccccc4)n(Cc4ccco4)c3nc12
69	CCOc1cc(C)nc(N2CCN(C3CCCCC3)CC2)n1
70	COc1ccccc1CN(C)C(=O)c1sccc1-c1ccccc1
71	C[C@H](NC(=O)c1[nH]cnc1C(=O)Nc1ccc(Cl)cc1)c1ccccc1
72	COCCN(CCOC)S(=O)(=O)c1ccc(C(=O)Nc2sc3c(c2C(N)=O)CCCCC3)cc1
73	Cn1c(CCCOc2ccc(Cl)cc2Cl)n[nH]c1=S
Screen / compound no. | 65 | 66 | 67 | 68 | 69 | 70 | 71 | 72 | 73
GLA inh pH 4.5 | 3 | 1 | 3 | nt | -9 | nt | nt | 1 | -1
Rango release inh | 49% | 11% | -14% | ? | 1% | 2% | 23% | -15% | -8%
miR-21 FLuc | -2% | -6% | -2% | nt | 0% | -9% | nt | -79% | -75%
Rango complex inh | -1.6% | 0.3% | -3.1% | ? | -0.6% | -0.2% | 1.1% | 0.0% | -0.9%

From PubChem BioAssay
